hNpr1 antagonist: antagonists of human natriuretic peptide receptor Npr1 | HEK293 hNpr1 GloSensor cGMP, ANP-stimulated luminescence | Potency, µM (highest dose often 46.3 µM), inactives show at the top dose activity change, negative = inhibition, actives largely listed as inhibitors | hit rate 1.6% among 76,000; active = well fitted inhibition curve with a large enough effect; inconclusive = small, poorly fitted or top-dose-only effect; inactive = no such curve, though single readings can be large or run the other way;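 note: nearly all actives have a fitted effect of over 60% in size; nearly all hits also lower the signal before the agonist is added; a reference antagonist and vehicle were the controls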
Target sequence (P16066 whole entry, looked up): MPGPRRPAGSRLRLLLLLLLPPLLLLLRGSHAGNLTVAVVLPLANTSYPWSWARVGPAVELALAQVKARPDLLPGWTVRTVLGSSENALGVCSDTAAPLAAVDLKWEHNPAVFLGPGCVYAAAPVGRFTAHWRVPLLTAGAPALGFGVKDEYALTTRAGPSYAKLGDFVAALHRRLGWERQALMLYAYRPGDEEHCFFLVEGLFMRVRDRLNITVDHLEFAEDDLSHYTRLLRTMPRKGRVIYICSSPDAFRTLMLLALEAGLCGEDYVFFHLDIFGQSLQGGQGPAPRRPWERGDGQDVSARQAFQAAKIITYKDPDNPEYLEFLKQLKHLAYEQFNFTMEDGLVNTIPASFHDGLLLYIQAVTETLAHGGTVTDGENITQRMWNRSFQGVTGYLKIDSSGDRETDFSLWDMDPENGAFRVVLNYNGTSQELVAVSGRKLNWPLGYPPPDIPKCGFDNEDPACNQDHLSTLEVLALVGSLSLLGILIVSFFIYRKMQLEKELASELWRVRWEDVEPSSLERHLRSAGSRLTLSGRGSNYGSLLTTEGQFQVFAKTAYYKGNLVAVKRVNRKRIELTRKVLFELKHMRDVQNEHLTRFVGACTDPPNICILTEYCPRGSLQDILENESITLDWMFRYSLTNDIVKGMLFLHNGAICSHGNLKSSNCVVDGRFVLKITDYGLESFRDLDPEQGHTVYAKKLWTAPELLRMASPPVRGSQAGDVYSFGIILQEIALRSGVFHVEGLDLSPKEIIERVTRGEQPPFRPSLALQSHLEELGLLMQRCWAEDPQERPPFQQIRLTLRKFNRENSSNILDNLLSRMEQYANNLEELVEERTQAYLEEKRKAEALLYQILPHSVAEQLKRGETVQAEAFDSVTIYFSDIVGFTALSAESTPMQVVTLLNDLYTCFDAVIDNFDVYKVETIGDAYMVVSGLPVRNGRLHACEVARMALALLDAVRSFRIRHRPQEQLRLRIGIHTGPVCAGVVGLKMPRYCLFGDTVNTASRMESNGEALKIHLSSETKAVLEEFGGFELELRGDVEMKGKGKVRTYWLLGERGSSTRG
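Compound pre-incubated 30 min at room temperature on GloSensor-loaded HEK293 cells stably carrying hNpr1 and the pGS-40F cGMP biosensor. Stimulation uses hNppA at 0.1 nM final; luminescence is taken at baseline and 20 min post-agonist.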
An asterisk follows results filed as active; ? = inconclusive; & = joins results of further samples; [ ] = dose if it differs, or a comment. % is set by controls: 0 for no effect and ±100 for the full control effect; potency is the fitted concentration of half-maximal effect. A portion of the library (hit frequency here may not be typical).

hNpr1 antagonist	Molecule
2%[70.6 µM]	COc1ccccc1-c1ccc2c(n1)CN(CC(=O)N1CCCC1)C(=O)CO2
0%[70.6 µM]	CC(=O)N1CC2(Cc3ccccc31)CN([S+](C)(=O)[O-])C2
?	O=C(c1ccoc1)N1CCCC(n2cc(-c3nc(-c4ccccc4)no3)nn2)C1 (stereo unspecified)
-1%[70.6 µM]	C[C@H]1[C@@H]2[C@H]3OC(=O)[C@@H](C)[C@@H]3CC[C@@]2(C)CC[C@@H]1NC(=O)CC(C)(C)C
4%	CC(C)NC(=O)[C@@H]1C[C@H](N)CN1C(=O)c1cccc(S(C)(=O)=O)c1
-16%[70.6 µM]	COc1ccccc1-c1cc2c(ccn2Cc2ccncc2)c(N2CCOCC2)n1
-1%[70.6 µM]	COc1cccc(-c2cc(-c3cccnc3)c3cncn3c2)c1OC
4%	Cn1ccc(C(=O)N[C@@H]2CN(c3ncccn3)C[C@H]2CO)n1
2%	O=C(NC[C@H]1O[C@@H](CO)[C@@H](O)[C@H]1N1CCN(c2ccccn2)CC1)c1ccc(F)c(Cl)c1
1%	Cc1ccc(CN2C[C@@H](NC(=O)c3cccnc3)C[C@H]2CO)o1
0%	COC(=O)[C@H]1CCCN1C(=O)[C@@H]1C[C@H](NC(=O)NC2CCCCC2)CN1C(=O)CSC
3%	CCOCc1nc(C2CCCN(C(=O)c3cccc(F)c3)C2)no1 (stereo unspecified)
2%	COC[C@@H]1CN(C(=O)c2cccc(C#N)c2)C[C@H]1c1nc(C2CC2)no1
1%	COc1ccc(CC(=O)N2[C@@H]3CC[C@H]2CC(NC(=O)c2ccncc2)C3)cc1Cl (stereo partly specified)
-5%[70.6 µM]	Cc1nnc(-c2cc(-c3ccsc3)ccn2)n1C(C)C
5%	CC(Oc1ccccc1)C(=O)N1CCOCCNC(=O)CC1 (stereo unspecified)
6%	COc1cccc(CNC(=O)[C@@H]2C[C@@H](O)CN2C2CCN(C(=O)c3ccc(OC)c(F)c3)CC2)c1
-30%	CC(=O)c1cc(CN2CCC(n3nccc3NC(=O)Cc3ccccc3)CC2)cs1
3%	CCn1ccc(C(=O)N2CCC(c3noc(-c4cnccn4)n3)C2)n1 (stereo unspecified)
4%	O=C(c1cccc(C(F)(F)F)c1)N1CC2CC(C1)[C@H]1CCCC(=O)N1C2 (stereo partly specified)
-14%	CCn1cc(-c2ccc(C)cc2)cc1C(=O)NC1CC1
3%	Cc1cccc(OCCc2noc(C3CN(C(=O)c4cnccc4C)C3)n2)c1
3%	Cc1ccc(NC(=O)Cn2c(=O)n(-c3ccccc3)c(=O)c3c2cc(C)n3C)cc1
4%	COc1ccc(-c2nc(C3CC(=O)N(c4ccc(F)c(Cl)c4)C3)no2)c(C)c1 (stereo unspecified)
2%	Cc1c(C(=O)N(Cc2cccc(OCC3CCOC3)c2)Cc2ccccn2)[nH]c2ccc(Cl)cc12 (stereo unspecified)

The listing continues:
hNpr1 antagonist	Molecule
1%	CO[C@H]1[C@H](NC(=O)Cc2ccc(O)cc2)c2ccccc2C12CCNCC2
-26%	CCOc1ccc2c(n1)CCN(C(=O)NC1CCCCC1)C2
-6%	Cc1cc(C(F)(F)F)nn1CC(=O)NCC1Cn2cccc2C(=O)N1CC(C)C (stereo unspecified)
1%	O=C1CC(Cc2ccccn2)CN1c1ccccc1 (stereo unspecified)
-14%	COc1ccc2[nH]c3c(c2c1)CCNC31CCN(C(=O)c2cnn(C)c2)CC1
1%	O=C([C@@H]1C[C@H](Oc2cccnc2)CN1C(=O)CCCc1ccccc1)N1CCOCC1
-23%[70.6 µM]	Fc1ccc(-c2ccc3ncc(Nc4ccc(Cl)cn4)n3n2)cc1
-16%	CC(C)c1noc(-c2cn(C3CCCN(C(=O)c4ccsc4)C3)nn2)n1 (stereo unspecified)
-5%[70.6 µM]	O=C(OCc1ccccc1)N1CCOCC12CCN(Cc1ccncc1)CC2
-3%	O=C(Cc1ccc(F)cc1)N1CCC[C@H]1c1nc(-c2ccccc2)no1
-3%	Cc1cc(CN2C[C@@H](CO)[C@H](c3ccccn3)C2)n(C)n1
3%	CCn1ccnc1CN(C)C(=O)c1ccc2oc(-c3ccc(C(F)(F)F)cc3)nc2c1
-17%	O=C(Cn1cccc1-c1nc(-c2ccccc2)no1)Nc1ccccc1
4%	O=C(NC1CCOC2(CCOCC2)C1)c1ccc(C(F)(F)F)cc1 (stereo unspecified)
2%[70.6 µM]	CC(=O)Nc1ccc(CN2CCOC[C@H]2c2ncc(-c3ccc(F)cc3F)[nH]2)cc1
0%[70.6 µM]	O=C(Nc1ccc(Cl)cc1)N[C@H]1CO[C@H]2[C@@H]1OC[C@H]2O
-20%	COCCN1C(=O)c2cccn2CC1CNC(=O)CCc1ccccc1 (stereo unspecified)
2%	COc1ccc(C(=O)N2CCCC(n3cc(-c4nc(C5CC5)no4)nn3)C2)cn1 (stereo unspecified)
4%[70.6 µM]	O=C(Nc1ncc(-c2cccc(F)c2)c2c1OCC2)c1ccncc1
2%	COc1ccc(CCC(=O)N[C@@H]2CN(c3ccncn3)C[C@H]2CN(C)C)cc1
-4%	COc1ccc2[nH]c3c(c2c1)CCNC31CCN(C(=O)c2ccnn2C)CC1
6%[70.6 µM]	CN1[C@@H](CCC(=O)NCc2ccccc2)CNC(=O)[C@@H]2[C@H]1CCN2Cc1csnn1
-27%&16%[70.6 µM]	C#CCNC(=O)c1nc(-c2cccc(F)c2)c2cnccn12
0%	O=C(c1ccsc1)N1CCC(Oc2cccc(F)c2)C1 (stereo unspecified)
0%	CC(C)c1ccc(CN2CCC3(CC2)OC(=O)N(Cc2ncccn2)C3(C)c2ccccc2)cc1 (stereo unspecified)

Further results
hNpr1 antagonist	Molecule
2%	CC(C)OC(C)C(=O)N1CCC(n2nccc2NC(=O)c2ccccc2)CC1 (stereo unspecified)
2%[70.6 µM]	CC[C@H]1CN(C(=O)Nc2cccc(OC)c2)CC[C@H]1CC(=O)O
2%	O=C1CCN(C(=O)C2CCN(S(=O)(=O)c3ccccc3)CC2)CCCCCCN1
-10%	CS(=O)(=O)Nc1ccc(C2(C(=O)NCCC3=CCCCC3)CCCCC2)cc1
-26%	COc1ccc(CCc2nc(C3CC(=O)N(c4ccc(Cl)cc4)C3)no2)cc1 (stereo unspecified)
3%	O=C(Cn1c(=O)oc2ccccc21)N1CCC(c2noc(-c3cccnc3)n2)C1 (stereo unspecified)
0%[70.6 µM]	CNC(=O)[C@@H](c1ccccc1F)N1CCC[C@H]1C(=O)NCC(C)C
-30%[70.6 µM]	Nc1ncccc1CN1CC(COc2ccccc2)C2(C1)CN(c1ccccc1)C2 (stereo unspecified)
0%[70.6 µM]	COCc1cn([C@H]2CO[C@H]3[C@@H]2OC[C@H]3OC(=O)Nc2ccc(C(C)(C)C)cc2)nn1
-8%[70.6 µM]	COC(=O)CNC(=O)c1nc(-c2ccccc2)c2ccccn12
-1%	O=C1NCCCCCN(C(=O)C2CCCCC2)[C@H]2CCCC[C@@H]12
-8%[70.6 µM]	CC(C)NC(=O)N[C@H]1C[C@H]2C(=O)NC[C@@H](CCC(=O)N3CCCCC3)N2C1
-2%[70.6 µM]	CC(=O)N1CCN(c2ccc3nnc(-c4ccc(C)cn4)n3n2)CC1
-10%	COCCN1C(=O)c2ccccc2C(C(=O)NCc2ccc(Cl)cc2)C12CCCCC2 (stereo unspecified)
-16%	COc1cc(C(=O)NC2CCN(c3cc(-c4cccs4)[nH]n3)C2)cc(OC)c1OC (stereo unspecified)
-3%[70.6 µM]	CN1CCN(C(=O)CC[C@H]2CNC(=O)[C@@H]3[C@@H](CCN3CC(C)(C)C)N2C)CC1
7%[70.6 µM]	CCC(CC)C(=O)NC[C@H]1O[C@@H](CC(=O)NCc2ccc(F)cc2)[C@H](O)[C@@H]1O
6%	O=C1CCCCCN1CCc1nc(C2CCOC2)no1 (stereo unspecified)
3%	COc1cccc(CN2C(=O)OC3(CCN(C(=O)C4CCC4)CC3)C2(C)c2cccnc2)c1 (stereo unspecified)
0%	CN(C)c1cc(N2CCCC(NC(=O)NCc3ccccc3)C2)ncn1 (stereo unspecified)
3%[70.6 µM]	Cc1cccc(OCC2(CNC(=O)N3CCOCC3)C[C@@H](O)[C@@H](O)C2)n1 (stereo partly specified)
8%	COc1ccc(CN2C(=O)CO[C@H](c3ccc(NC(=O)c4ccc(OC)cc4)cc3)[C@H]2CO)cc1
5%[70.6 µM]	COc1ccccc1-c1cnc(NC(=O)C2CCOCC2)c2c1CCO2
-1%	COc1ccc(C(=O)N[C@@H]2CN(c3ncccn3)C[C@H]2CO)cc1F
-12%	COc1ccc(C(=O)NC2CCCN(c3cc(-c4ccc(F)cc4)[nH]n3)C2)cc1 (stereo unspecified)

14 compounds from above, ordered by formula weight, ascending.
hNpr1 antagonist	Molecule
-14%	CCn1cc(-c2ccc(C)cc2)cc1C(=O)NC1CC1
-3%	Cc1cc(CN2C[C@@H](CO)[C@H](c3ccccn3)C2)n(C)n1
0%[70.6 µM]	O=C(Nc1ccc(Cl)cc1)N[C@H]1CO[C@H]2[C@@H]1OC[C@H]2O
0%[70.6 µM]	CNC(=O)[C@@H](c1ccccc1F)N1CCC[C@H]1C(=O)NCC(C)C
-17%	O=C(Cn1cccc1-c1nc(-c2ccccc2)no1)Nc1ccccc1
-1%	COc1ccc(C(=O)N[C@@H]2CN(c3ncccn3)C[C@H]2CO)cc1F
3%[70.6 µM]	Cc1cccc(OCC2(CNC(=O)N3CCOCC3)C[C@@H](O)[C@@H](O)C2)n1 (stereo partly specified)
3%	Cc1cccc(OCCc2noc(C3CN(C(=O)c4cnccc4C)C3)n2)c1
2%[70.6 µM]	COc1ccccc1-c1ccc2c(n1)CN(CC(=O)N1CCCC1)C(=O)CO2
-26%	COc1ccc(CCc2nc(C3CC(=O)N(c4ccc(Cl)cc4)C3)no2)cc1 (stereo unspecified)
-30%[70.6 µM]	Nc1ncccc1CN1CC(COc2ccccc2)C2(C1)CN(c1ccccc1)C2 (stereo unspecified)
-10%	CS(=O)(=O)Nc1ccc(C2(C(=O)NCCC3=CCCCC3)CCCCC2)cc1
0%	COC(=O)[C@H]1CCCN1C(=O)[C@@H]1C[C@H](NC(=O)NC2CCCCC2)CN1C(=O)CSC
6%	COc1cccc(CNC(=O)[C@@H]2C[C@@H](O)CN2C2CCN(C(=O)c3ccc(OC)c(F)c3)CC2)c1

The results go on:
hNpr1 antagonist	Molecule
0%	O=C(Cc1ccc(F)cc1)N1C[C@@H](CO)[C@H](c2ccccn2)C1
-1%	COc1cc(-n2cnnn2)cc(-n2ccnc2-c2cc3n(n2)CCCNC3)c1
1%	CCOC(=O)CCNC(=O)N1CCCC(Cn2cnc3cccnc32)C1 (stereo unspecified)
11%	CN1CC(=O)N(c2ccc([N+](=O)[O-])cc2)Cc2c1ncnc2N1CCOCC1
2%	CC(C)N1CCN(C2CCOC3(CCN(C(=O)Nc4ccccc4F)CC3)C2)CC1 (stereo unspecified)
7%	O[C@@H]1C[C@@H](c2nnc3n2CCN(Cc2ccc(F)cc2F)C3)N(Cc2cccnc2)C1
1%	COc1ccc(C(=O)NCC2c3cc(OC)c(OC)cc3CCN2C(=O)NC(C)C)cc1 (stereo unspecified)
3%	COc1ccc(Cl)cc1C(=O)N1CCC(N2CC3CC(C2)[C@H]2CCCC(=O)N2C3)CC1 (stereo partly specified)
4%	CN(C)C[C@@H]1CN(Cc2ccncc2)C[C@H]1NC(=O)c1ccoc1
4%	COc1cccc(CN2CC[C@@H]3CN(S(C)(=O)=O)[C@@H]3C2)c1OC
5%	CCC(C)NC(=O)C1(c2ccc(NS(=O)(=O)CC)cc2)CCCCC1 (stereo unspecified)
4%	O=C(NCCNc1cccnc1)C1CCC(=O)N(C2CC2)C1 (stereo unspecified)
3%[70.6 µM]	COc1ccc(NC(=O)N[C@H]2[C@H](O)[C@@H](N3CCOCC3)[C@@H]3OC[C@H]2O3)cc1
-1%	O=C(Cn1ccn2nc(-c3ccccc3)c(CO)c2c1=O)NCc1ccc2c(c1)OCO2
0%[70.6 µM]	CN(C)C(=O)c1ccnc(-c2nnc3ccc(N(C)Cc4ccccc4)nn23)c1
-3%[70.6 µM]	CC(=O)N1CCN([C@H]2[C@@H]3OC[C@@H](O3)[C@@H](NCc3ccc(CO)o3)[C@@H]2O)CC1
2%	Cc1ccc(C2Cn3cnc(C(=O)N4CCC(C(=O)NCc5cc(F)ccc5F)CC4)c3CO2)cc1 (stereo unspecified)
-2%	O=C1NCCCCCCN(Cc2ccncc2)[C@@H]2CN(C3CCC3)CC[C@H]12
0%	CC(C)C(=O)NCc1ccc(C(=O)N2CCC3(CCNCC3)CC2)cc1
0%	CC(Cn1cncn1)NC(=O)c1ccc(CCC(C)(C)O)cc1 (stereo unspecified)
-18%	CC1Oc2ccc(NC(=O)c3ccc(Cl)c(Cl)c3)cc2CN(Cc2ccccc2F)C1=O (stereo unspecified)
-8%	O=C(Cn1nc2n(c1=O)CCCC2)NCc1ccc(F)cc1
-8%	COc1ccc(-c2ccc3nc(-c4cc5c(cc4Br)OCO5)oc3c2)c(OC)c1OC
0%	CS(=O)(=O)N1CCCN(C(=O)C2CCCCC2)c2ccccc21
0%	O=c1c2c(CO)c(-c3ccccc3)nn2ccn1CCc1ccccc1

Next results
hNpr1 antagonist	Molecule
-1%[70.6 µM]	CC1(C(=O)Nc2ccccc2)CCc2cnc(N3CCOCC3)nc21 (stereo unspecified)
1%	CC1=C[C@@H](CNS(=O)(=O)Cc2ccccc2)[C@H](C(C)C)C[C@H]1CC(=O)NCc1ccccn1
-9%	COc1ccc(C2CCC(=O)N2Cc2ccc(F)cc2)cc1 (stereo unspecified)
-1%[70.6 µM]	CNC(=O)c1ccc(NC(=O)c2nc(C(O)c3ccccc3F)oc2C)cc1 (stereo unspecified)
-2%	Cc1ccc(-c2nc(NCc3ccncc3)ncc2C(=O)O)cc1
-1%	CCCNC(=O)N(C1CCOCC1)C1CCN(C(=O)c2cccc(F)c2)CC1
3%	CC1CCC2(CC1)NC(=O)N(CC(=O)N1CCCCC1)C2=O (stereo unspecified)
